Yeast UUG start – yeast start codon fidelity modulation | S. cerevisiae UUG-firefly luciferase reporter, luminescence/redox ratio | 0.13% of 350,000 active | activity score, % at 18.7 µM;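 active = replicate mean at a twofold rise or more, about +100% in these data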;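 note: firefly luciferase made from a UUG start codon reports start codon fidelity; reporter light over untreated wells divided by growth signal over untreated wells; some hits fall short of that in this replicate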
Env fusion inh – blocks HIV Env-driven cell-cell fusion. 1.1% of 360,000 active. HeLa-JRFL Env/CEM21 cell fusion, luciferase. inhibition, % at 12.3 µM;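 active = mean replicate inhibition score of at least 50 and every replicate individually at or above 50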;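 note: 0% = plate neutral controls and 100% = maraviroc near 300 nM; one replicate is shown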
* hit, by the source's call; [ ] = remark or other dose.

For C[C@@H]1CN([C@@H](C)CO)C(=O)c2cccc(NC(=O)C3CCOCC3)c2O[C@H]1CN(C)Cc1ccncc1 the results were Yeast UUG start -20.0 and Env fusion inh -12.2[16.7 µM].
For CCS(=O)(=O)Nc1ccc2c(c1)C(=O)N(C)[C@@H]1CC[C@H](CC(=O)NC)O[C@H]1CO2 the results were Yeast UUG start -6.7 and Env fusion inh 1.5[16.7 µM].
`COC(=O)[C@@]1(CCC(=O)OC(C)(C)C)N=C(c2ccc(OCCCO)cc2)O[C@H]1c1ccccc1CN=[N+]=[N-]` gave Yeast UUG start 14.1 and Env fusion inh 26.2[16.7 µM].
For COc1ccc(S(=O)(=O)Nc2ccc3c(c2)C(=O)N([C@@H](C)CO)C[C@@H](C)[C@H](CN(C)C(=O)c2ccncc2)OCCCC[C@H](C)O3)cc1 the results were Yeast UUG start -17.4 and Env fusion inh 12.7[16.7 µM].
`C[C@@H]1CN([C@@H](C)CO)C(=O)c2cc(NS(=O)(=O)c3ccccc3)ccc2O[C@@H](C)CCCCO[C@H]1CN(C)Cc1ccncc1` gave Yeast UUG start 8.8 and Env fusion inh -15.3[16.7 µM].
C[C@H](CO)N1C[C@H](C)[C@@H](CN(C)C(=O)Nc2ccc(F)cc2)Oc2ccc(NS(=O)(=O)c3ccc(Cl)cc3)cc2CC1=O was read as Yeast UUG start 3.8 and Env fusion inh 8.2[16.7 µM].
`N#C[C@H]1[C@H](c2ccc(-c3ccccc3)cc2)[C@H](CO)N1C(=O)Cc1ccccc1` gave Yeast UUG start 12.5 and Env fusion inh -7.4[16.7 µM].
For C[C@H](CO)N1C[C@H](C)[C@@H](CN(C)Cc2ccc(-c3ccccc3)cc2)Oc2ncc(C#CCN(C)C)cc2C1=O the results were Yeast UUG start 10.0 and Env fusion inh 13.3[16.7 µM].
For C[C@H](CO)N1C[C@H](C)[C@@H](CN(C)Cc2ccccc2)Oc2ncc(C#CCN(C)C)cc2C1=O the results were Yeast UUG start -20.2 and Env fusion inh 5.8[16.7 µM].
For CNC[C@@H]1OCCCC[C@@H](C)Oc2ccc(NS(=O)(=O)c3cn(C)cn3)cc2C(=O)N([C@H](C)CO)C[C@H]1C the results were Yeast UUG start 8.3 and Env fusion inh -7.8[16.7 µM].
For Cc1ccccc1-c1ccc2c(c1)O[C@H](CN(C)C)[C@H](C)CN([C@@H](C)CO)S2(=O)=O the results were Yeast UUG start -2.7 and Env fusion inh -12.4[16.7 µM].
Screening Cc1ccc(S(=O)(=O)N(C)C[C@@H]2Oc3ccc(NS(=O)(=O)c4cccs4)cc3C(=O)N([C@H](C)CO)C[C@@H]2C)cc1 returned Yeast UUG start -0.5 and Env fusion inh 17.6[16.7 µM].
Screening Cc1cccc(S(=O)(=O)N2C[C@H](O)COC[C@H]3O[C@H](CC(=O)Nc4ccc(-c5ccccc5)cc4)CC[C@@H]32)c1 returned Yeast UUG start -10.6 and Env fusion inh 7.3[16.7 µM].
Screening C[C@@H]1CN([C@@H](C)CO)C(=O)c2cccc(NS(=O)(=O)c3ccccc3)c2O[C@@H]1CN(C)C(=O)Nc1ccc(C(F)(F)F)cc1 returned Yeast UUG start -4.5 and Env fusion inh -13.8[16.7 µM].
COc1ccc(NC(=O)N(C)C[C@H]2Oc3ccc(NC(=O)Cc4cn(C)c5ccccc45)cc3C(=O)N([C@@H](C)CO)C[C@H]2C)cc1 was read as Yeast UUG start -4.4 and Env fusion inh 5.1[16.7 µM].
Screening C[C@H](CO)N1C[C@H](C)[C@H](CN(C)C(=O)Nc2ccc(F)cc2)Oc2ncc(C#CCN(C)C)cc2C1=O returned Yeast UUG start 22.6 and Env fusion inh -5.1[16.7 µM].
`COc1ccc(S(=O)(=O)Nc2ccc3c(c2)CC(=O)N([C@@H](C)CO)C[C@@H](C)[C@H](CN(C)Cc2ccc4c(c2)OCO4)O3)cc1` gave Yeast UUG start 5.3 and Env fusion inh 1.9[16.7 µM].
`C[C@@H]1CCCCO[C@H](CN(C)C(=O)NC2CCCCC2)[C@@H](C)CN([C@@H](C)CO)C(=O)c2cc(NS(=O)(=O)c3cccs3)ccc2O1` gave Yeast UUG start 8.2 and Env fusion inh -32.7[16.7 µM].
`C[C@@H]1CCCCO[C@@H](CN(C)Cc2ccc(C(=O)O)cc2)[C@H](C)CN([C@H](C)CO)C(=O)c2cc(NS(C)(=O)=O)ccc2O1` gave Yeast UUG start -1.9 and Env fusion inh -27.2[16.7 µM].
`Cc1cc(C(=O)Nc2cccc3c2O[C@@H](CN(C)S(=O)(=O)c2ccc(F)cc2)[C@H](C)CN([C@@H](C)CO)C3=O)n(C)n1` gave Yeast UUG start -1.6 and Env fusion inh -23.5[16.7 µM].
For C[C@H]1CCCCO[C@H](CN(C)C(=O)CCC(F)(F)F)[C@@H](C)CN([C@@H](C)CO)C(=O)c2cc(NC(=O)CCC(F)(F)F)ccc2O1 the results were Yeast UUG start 13.1 and Env fusion inh 11.6[16.7 µM].
Screening CCCNC(=O)Nc1ccc2c(c1)C(=O)N(C)[C@H]1CC[C@H](CC(=O)NC)O[C@H]1CO2 returned Yeast UUG start 2.3 and Env fusion inh 0.2[16.7 µM].
Screening Cc1ccc(S(=O)(=O)Nc2ccc3c(c2)CC(=O)N([C@@H](C)CO)C[C@@H](C)[C@H](CN(C)Cc2ccc(-c4ccccc4)cc2)O3)cc1 returned Yeast UUG start 8.4 and Env fusion inh 27.2[16.7 µM].
`C[C@H]1CN([C@@H](C)CO)C(=O)Cc2cc(NC(=O)Nc3ccc(F)cc3)ccc2O[C@H]1CN(C)S(=O)(=O)c1ccc(Cl)cc1` gave Yeast UUG start -9.5 and Env fusion inh -167.6[16.7 µM].
For C[C@H](CO)N1C[C@H](C)[C@H](CN(C)Cc2ccc3c(c2)OCO3)Oc2ccc(NC(=O)Nc3ccc4c(c3)OCO4)cc2CC1=O the results were Yeast UUG start -11.3 and Env fusion inh 16.0[16.7 µM].
COCC(=O)Nc1ccc2c(c1)OC[C@H](C)N(C(=O)c1ccncc1)C[C@@H](C)[C@@H](OC)CN(C)C2=O was read as Yeast UUG start -10.9 and Env fusion inh -3.9[16.7 µM].
`N#C[C@@H]1[C@H](c2ccccc2)[C@H](CO)N1S(=O)(=O)c1ccc(-c2ccccc2)cc1` gave Yeast UUG start -2.2 and Env fusion inh 20.0[16.7 µM].
Screening O=C(Nc1cc(Cl)cc(Cl)c1)N[C@H]1CC[C@H](CCNS(=O)(=O)c2cccc(F)c2)O[C@@H]1CO returned Yeast UUG start 4.9 and Env fusion inh -3.6[16.7 µM].
Screening CCCC(=O)Nc1ccc2c(c1)OC[C@@H](C)N(Cc1ccncc1)C[C@@H](C)[C@H](OC)CN(C)C2=O returned Yeast UUG start 6.4 and Env fusion inh -7.0[16.7 µM].
`CN(C)C(=O)C[C@@H]1C=C[C@@H](NC(=O)NC2CCCCC2)[C@H](CO)O1` gave Yeast UUG start -3.3 and Env fusion inh -22.9[16.7 µM].
`CN1C(=O)c2cc(NC(=O)c3ccc(F)c(F)c3)ccc2OC[C@H]2O[C@@H](CC(=O)O)CC[C@H]21` gave Yeast UUG start 0.3 and Env fusion inh -2.3[16.7 µM].
`C[C@@H]1CN([C@@H](C)CO)C(=O)c2cc(C#CC(C)(C)O)cnc2O[C@@H]1CN(C)C(=O)CC1CC1` gave Yeast UUG start -3.1 and Env fusion inh -3.9[16.7 µM].
COc1ccc(CN(C)C[C@H]2OCCCC[C@H](C)Oc3ccc(NC(=O)Cc4ccccc4)cc3C(=O)N([C@H](C)CO)C[C@@H]2C)cc1 was read as Yeast UUG start 19.2 and Env fusion inh -1.5[16.7 µM].
For COc1cccc(S(=O)(=O)N[C@@H]2CC[C@H](CCn3cc(-c4ccccc4)nn3)O[C@@H]2CO)c1 the results were Yeast UUG start 0.9 and Env fusion inh 4.5[16.7 µM].
`C[C@@H]1CN([C@@H](C)CO)C(=O)c2cc(-c3cccnc3)cnc2O[C@H]1CN(C)C(=O)C1CCC1` gave Yeast UUG start -5.5 and Env fusion inh 9.3[16.7 µM].
C[C@H]1CN([C@@H](C)CO)S(=O)(=O)c2ccc(C3=CCCC3)cc2O[C@H]1CN(C)Cc1ccncc1 was read as Yeast UUG start 3.7 and Env fusion inh 27.7[16.7 µM].
For CO[C@H]1CN(C)C(=O)c2cc(NC(=O)c3ccno3)ccc2OC[C@H](C)NC[C@@H]1C the results were Yeast UUG start -0.6 and Env fusion inh 2.4[16.7 µM].
`O=C(O)C[C@@H]1CC[C@@H](NC(=O)Nc2cc(F)ccc2F)[C@H](CO)O1` gave Yeast UUG start -12.0 and Env fusion inh -298.1[16.7 µM].
C[C@@H]1CCCCO[C@@H](CN(C)C(=O)C2CCCCC2)[C@@H](C)CN([C@@H](C)CO)C(=O)c2cc(NC(=O)Cc3ccccc3)ccc2O1 was read as Yeast UUG start 35.4 and Env fusion inh -22.9[16.7 µM].
`O=C(C[C@@H]1CC[C@H](NC(=O)c2cnccn2)[C@H](CO)O1)NCc1ccccc1F` gave Yeast UUG start 0.5 and Env fusion inh -16.4[16.7 µM].
Screening O=C(C[C@H]1CC[C@@H](NC(=O)C2CCC2)[C@@H](CO)O1)NCCCN1CCOCC1 returned Yeast UUG start -6.1 and Env fusion inh 8.0[16.7 µM].
For C[C@H]1CN([C@@H](C)CO)S(=O)(=O)c2ccc(C#Cc3ccccc3)cc2O[C@H]1CN(C)C(=O)Nc1ccccc1 the results were Yeast UUG start -8.4 and Env fusion inh -19.2[16.7 µM].
For C[C@@H]1CCCCO[C@H](CN(C)CC2CCCCC2)[C@H](C)CN([C@H](C)CO)C(=O)c2cc(NS(=O)(=O)c3cccs3)ccc2O1 the results were Yeast UUG start 11.5 and Env fusion inh -63.7[16.7 µM].
For CCCC(=O)Nc1ccc2c(c1)C(=O)N(C)C[C@H](OC)[C@@H](C)CN(C)[C@@H](C)CO2 the results were Yeast UUG start -4.2 and Env fusion inh -26.5[16.7 µM].
Screening O=C(C[C@H]1CC[C@H]2[C@@H](COC[C@@H](O)CN2C(=O)Nc2ccc(C(F)(F)F)cc2)O1)NC1Cc2ccccc2C1 returned Yeast UUG start 13.0 and Env fusion inh 8.2[16.7 µM].
For C[C@H]1CCCCO[C@H](CN(C)C(=O)Nc2ccccc2)[C@@H](C)CN([C@@H](C)CO)C(=O)c2cc(NC(=O)Cc3ccccc3)ccc2O1 the results were Yeast UUG start 3.2 and Env fusion inh -24.2[16.7 µM].
`CCNC(=O)C[C@@H]1CC[C@@H]2[C@H](COc3ccc(NC(=O)Nc4ccccc4OC)cc3C(=O)N2C)O1` gave Yeast UUG start 6.3 and Env fusion inh 2.5[16.7 µM].
`COc1ccc(CN(C)C[C@@H]2Oc3c(NC(=O)Nc4ccc(OC)cc4)cccc3C(=O)N([C@H](C)CO)C[C@H]2C)cc1` gave Yeast UUG start 8.6 and Env fusion inh -43.5[16.7 µM].

Reprinted from the part before: 4 compounds; new compounds follow.
Screening O=C(C[C@H]1CC[C@H]2[C@@H](COC[C@@H](O)CN2C(=O)Nc2ccc(C(F)(F)F)cc2)O1)NC1Cc2ccccc2C1 returned Yeast UUG start 13.0 and Env fusion inh 8.2[16.7 µM].
For C[C@H]1CCCCO[C@H](CN(C)C(=O)Nc2ccccc2)[C@@H](C)CN([C@@H](C)CO)C(=O)c2cc(NC(=O)Cc3ccccc3)ccc2O1 the results were Yeast UUG start 3.2 and Env fusion inh -24.2[16.7 µM].
`CCNC(=O)C[C@@H]1CC[C@@H]2[C@H](COc3ccc(NC(=O)Nc4ccccc4OC)cc3C(=O)N2C)O1` gave Yeast UUG start 6.3 and Env fusion inh 2.5[16.7 µM].
`COc1ccc(CN(C)C[C@@H]2Oc3c(NC(=O)Nc4ccc(OC)cc4)cccc3C(=O)N([C@H](C)CO)C[C@H]2C)cc1` gave Yeast UUG start 8.6 and Env fusion inh -43.5[16.7 µM].
Cc1ccc(S(=O)(=O)N[C@H]2CC[C@H](CCNS(=O)(=O)Cc3ccccc3)O[C@H]2CO)cc1 was read as Yeast UUG start -0.3 and Env fusion inh -13.4[16.7 µM].
`C[C@@H]1CCCCO[C@@H](CN(C)C(=O)Nc2ccc3c(c2)OCO3)[C@H](C)CN([C@@H](C)CO)C(=O)c2cc(NC(=O)NC3CCCCC3)ccc2O1` gave Yeast UUG start -10.6 and Env fusion inh 13.1[16.7 µM].
O=C(N[C@H]1CC[C@@H](CCNC(=O)C2CCOCC2)O[C@H]1CO)c1ccncc1 was read as Yeast UUG start -10.4 and Env fusion inh -5.4[16.7 µM].
Screening Cc1ccc(S(=O)c2ccc([N+](=O)[O-])c3nonc23)cc1 (stereo unspecified) returned Yeast UUG start -14.4 and Env fusion inh -15.2.
Screening O=C(C[C@@H]1C[C@H]2c3cc(NS(=O)(=O)c4ccc(F)cc4)ccc3O[C@H]2[C@H](CO)O1)NCc1ccccc1 returned Yeast UUG start 10.0 and Env fusion inh -23.3[16.7 µM].
For CC(C)CC#Cc1ccc2c(c1)O[C@@H](CN(C)C(=O)CN(C)C)[C@H](C)CN([C@H](C)CO)S2(=O)=O the results were Yeast UUG start 4.3 and Env fusion inh 9.6[16.7 µM].
COc1cccc(NC(=O)N(C)C[C@@H]2Oc3cc(C#Cc4ccccc4)ccc3S(=O)(=O)N([C@H](C)CO)C[C@@H]2C)c1 was read as Yeast UUG start 8.6 and Env fusion inh 7.8[16.7 µM].
Screening C[C@H](CO)N1C[C@H](C)[C@@H](CN(C)S(C)(=O)=O)Oc2cc(-c3ccncc3)ccc2S1(=O)=O returned Yeast UUG start -9.0 and Env fusion inh -21.8[16.7 µM].
C[C@@H]1CN([C@H](C)CO)C(=O)c2cc(C#Cc3ccccn3)cnc2O[C@@H]1CN(C)Cc1cccnc1 was read as Yeast UUG start 2.2 and Env fusion inh 10.2[16.7 µM].
For C[C@@H]1CN([C@H](C)CO)S(=O)(=O)c2ccc(-c3ccncc3)cc2O[C@H]1CN(C)Cc1ccc(Oc2ccccc2)cc1 the results were Yeast UUG start 16.5 and Env fusion inh 45.5[16.7 µM].
`Cc1ccc(S(=O)(=O)N(C)C[C@@H]2Oc3ncc(C#CCC(C)C)cc3C(=O)N([C@@H](C)CO)C[C@H]2C)cc1` gave Yeast UUG start 6.6 and Env fusion inh 9.1[16.7 µM].

This is a subset; the hit share may differ from the screen's.
